Compound activity from PubChem.
RecA intein inh = blocks M. tuberculosis RecA intein splicing; P9WHJ3; cell-free RecA intein splicing, fluorescence; inhibition, %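 (about 9 µM by stock and volumes)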; 290,000 tested, 0.75% active; AID 2221; in the data active = inhibition above about 30%;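 also: 0% = vehicle wells and 100% = reference inhibitor control wells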
Target sequence (P9WHJ3 whole entry, looked up): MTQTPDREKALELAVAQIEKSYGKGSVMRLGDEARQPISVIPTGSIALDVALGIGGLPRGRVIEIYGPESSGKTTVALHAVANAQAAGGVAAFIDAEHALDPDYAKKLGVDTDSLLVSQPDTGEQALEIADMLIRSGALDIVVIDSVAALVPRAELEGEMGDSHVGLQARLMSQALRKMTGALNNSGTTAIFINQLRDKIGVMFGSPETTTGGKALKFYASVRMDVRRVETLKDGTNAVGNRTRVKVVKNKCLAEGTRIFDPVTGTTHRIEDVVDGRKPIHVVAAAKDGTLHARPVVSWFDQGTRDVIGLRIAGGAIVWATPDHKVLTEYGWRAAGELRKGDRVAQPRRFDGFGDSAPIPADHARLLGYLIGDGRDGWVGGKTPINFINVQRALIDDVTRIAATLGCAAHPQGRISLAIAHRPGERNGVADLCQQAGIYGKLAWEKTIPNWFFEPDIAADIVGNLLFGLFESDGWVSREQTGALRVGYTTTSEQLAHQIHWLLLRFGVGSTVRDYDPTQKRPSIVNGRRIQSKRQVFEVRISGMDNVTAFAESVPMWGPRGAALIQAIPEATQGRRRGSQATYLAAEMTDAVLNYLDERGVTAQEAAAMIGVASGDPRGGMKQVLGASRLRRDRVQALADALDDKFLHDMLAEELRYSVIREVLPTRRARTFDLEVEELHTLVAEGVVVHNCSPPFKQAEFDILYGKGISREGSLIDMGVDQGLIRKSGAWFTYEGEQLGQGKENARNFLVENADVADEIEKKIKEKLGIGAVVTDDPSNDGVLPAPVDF
YopH PTP inh = blocks Yersinia enterocolitica YopH tyrosine phosphatase. fluorescence Ex485/Em525. inhibition, %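 (about 10 µM by stock and volumes)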. 140,000 tested, 0.16% active. AID 898;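 active = inhibition of 50% or more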;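 also: controls were vehicle for no effect and minimum signal wells for full effect; inactives centre near -20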
Mtb bLac sens = beta-lactam sensitization of Mtb H37Rv. M. tuberculosis H37Rv growth with meropenem, percent inhibition; hits of this screen are not shown here. 330,000 tested, 0.27% active. inhibition, % at 25 µM;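 active = about 74% or more and at least 40 points above the plate without the antibiotic, then above 30% in a dose series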;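 also: growth measured after seven days incubation then overnight dye step; 0% = bacteria only wells and 100% = bacteria with antibiotic; twin plates without the antibiotic show which effects depend on it; some results filed as inactive read as strong as hits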
Arbovirus inh = antivirals against arbovirus infection; arbovirus infection cell-based antiviral screen; inhibition, % at 10 µM; 200,000 tested, 0.37% active; AID 1251;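 active = inhibition from about 30%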;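 also: bluetongue infection of BSR cells; cell survival read as ATP light after 72 h; 0% = infected wells without compound and 100% = uninfected wells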
Mtb growth = M. tuberculosis H37Rv growth inhibitors, H37Rv strain (AID 1626); 220,000 tested, 0.95% active; M. tuberculosis H37Rv growth inhibition; higher % means a stronger effect; inhibition, % at 10 µM, or IC50 in µM where a hit was titrated;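 active = confirmed in a dose series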;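 also: bacteria incubated seven days before Alamar blue readout; 0% = bacteria only wells and 100% = bacteria with antibiotic wells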
Arbovirus inh repeat = second read-out of Arbovirus inh, no call of its own (marks repeat the call); inhibition, %; measured here: 10K subset replicate screen; many hits read low in the repeat;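 first of two repeat runs on a subset; 0% = infected and 100% = uninfected wells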
The depositor's hits bear a star; nt = not tested or not shown. An excerpt, so the mix of outcomes need not match the whole.

SMILES | RecA intein inh | YopH PTP inh | Mtb bLac sens | Arbovirus inh | Mtb growth | others
CNCc1sccc1C | -1.4 | nt | -6 | 0 | 3%
Cc1cc(C)n(CC2CC(=O)N(c3ccc(F)c(Cl)c3)C2=O)n1 (stereo unspecified) | nt | -57 | -8 | 0 | -11%
COc1cc(NC2c3ccccc3C(=O)N2c2ccc(C)cn2)cc(OC)c1OC (stereo unspecified) | 0.9 | -24 | 5 | -6 | 9%
Cn1c(CCC(=O)Nc2ccc(N3CCOCC3)cc2)nc(=O)c2ccccc21 | -4.5 | -3 | 4 | 2 | -3%
O=C(COC(=O)CNC(=O)c1cccs1)Nc1ccccc1C(F)(F)F | 2.6 | nt | 4 | 6 | 3%
O=C(C1=C(O)C(=O)N(CCN2CCOCC2)C1c1cccc(Br)c1)c1cc2ccccc2o1 (stereo unspecified) | 3.7 | nt | 2 | nt | nt
Fc1ccc(/C=N/c2c(-c3ccc(F)cc3)nc3n2CCS3)cc1 | -0.1 | -19 | 4 | 0 | -6%
CCc1ccc(N2C(=O)C3NN=C(C(=O)OCc4ccccc4)C3C2=O)cc1 (stereo unspecified) | -0.1 | -28 | 4 | 2 | 1%
Cn1c(=O)c2c(nc(Cl)n2CCOc2ccccc2)n(C)c1=O | 0.9 | nt | 5 | nt | nt
Cc1ccccc1NC(=S)NNC(=O)c1csc2c1CCC(C)C2 (stereo unspecified) | 9.8 | -20 | 7 | -12 | 9%
COCC1CCN(Cc2nc(-c3cccs3)no2)C1 (stereo unspecified) | 0.1 | nt | -3 | -1 | -18%
COc1ccc(CCn2c(=O)[nH]c3cc(C(=O)N4CCN(c5ccccn5)CC4)ccc3c2=O)cc1OC | -1.2 | nt | 5 | 4 | 1%
CCOC(=O)CSc1nnc(NC(=O)NC(C)C)s1 | -2.8 | nt | -2 | 8 | -2%
COc1cc(Cl)c(C)cc1NC(=O)COc1ccccc1[N+](=O)[O-] | 0.0 | -34 | 1 | -1 | -3%
FC(F)(F)c1ccc(-c2nc(=S)[nH][nH]2)cc1 | -1.5 | nt | -11 | nt | 5%
C/C(=N\NC(=O)CC#N)C1COc2ccccc2O1 (stereo unspecified) | -1.6 | nt | 21 | 0 | -4%
Cc1cccc(OCc2nnc(SCC(=O)O)n2Cc2ccccc2)c1 | -1.2 | nt | 0 | 6 | -7%
Cc1ccc(C)c(NS(=O)(=O)c2cc(C(=O)NCc3ccco3)ccc2C)c1 | 4.6 | -14 | nt | 3 | -1%
CCCCCSc1nc(C)c(CC(=O)O)c(=O)[nH]1 | -1.3 | -28 | -7 | -9 | 2%
C1CN(c2nc3nonc3n3nnnc23)CCO1 | -1.8 | -7 | 6 | 6 | -6%
COc1ccc(S(=O)(=O)N2CCN(CC(=O)Nc3ccc(F)c(F)c3)CC2)cc1 | -1.4 | 3 | -9 | 3 | 3%
CC(NC(=O)CN(C)S(=O)(=O)c1cccc2nsnc12)c1ccccc1 (stereo unspecified) | -3.8 | nt | 5 | nt | nt
Cc1ccc(C(=O)NCCCn2ccnc2)cn1 | nt | -5 | -2 | 6 | -7%
Cc1cc(C)cc(OCc2nnc(N)s2)c1 | 1.1 | nt | 3 | nt | 0%
COc1ccc(CCNC(=O)Cn2nnc(-c3cccc(OC)c3OC)n2)cc1OC | 7.4 | -11 | 1 | 1 | -9%

The list goes on; the last 2 above are carried over.
SMILES | RecA intein inh | YopH PTP inh | Mtb bLac sens | Arbovirus inh | Mtb growth | others
Cc1cc(C)cc(OCc2nnc(N)s2)c1 | 1.1 | nt | 3 | nt | 0%
COc1ccc(CCNC(=O)Cn2nnc(-c3cccc(OC)c3OC)n2)cc1OC | 7.4 | -11 | 1 | 1 | -9%
O=C(NCC(=O)N1CCC2(CC1)NCCc1[nH]cnc12)c1ccccc1F | -1.1 | nt | -4 | nt | nt
O=C(COC(=O)CNC(=O)c1ccc(Cl)cc1)Nc1ccc2c(c1)OCCO2 | -1.4 | -29 | -3 | 9 | -4%
O=C(Nc1ccc(SC(F)(F)F)cc1)c1ccccn1 | nt | nt | 0 | -8 | 62%
CCOC(=O)Cc1csc(NC(=O)CN2C(=O)c3ccccc3C2=O)n1 | -0.8 | nt | 1 | nt | nt
CCNc1nc(Oc2ccc(C(=O)OCC)cc2)nc(SC)n1 | 2.0 | -15 | -10 | -2 | 3% | Arbovirus inh repeat=-1
O=S(=O)(/C=C/c1ccccc1)NCc1ccccc1Cl | 1.9 | -42 | 11 | 3 | 14%
COc1ccc(C2=NS(=O)(=O)N(C)C(C(=O)N3CCOCC3)=C2)cc1 | 1.2 | nt | 0 | nt | nt
COc1ccc(C(=O)N2CCN(C(=O)c3ccncc3)CC2)cc1 | -0.3 | -11 | -10 | 7 | 4%
COc1ccccc1NC(=O)Cn1c(=O)oc2cc(S(=O)(=O)N3CCCC3)ccc21 | -2.7 | nt | -2 | nt | nt
Cc1csc(NC(CO)c2nc3ccccc3n2CCOCCO)n1 (stereo unspecified) | -0.9 | nt | -3 | nt | -11%
C=CCn1c(-c2cccc3ccccc23)n[nH]c1=S | 3.0 | -4 | -13 | 1 | -5%
CCNC(=O)NC(=O)C(C)OC(=O)c1c(C)nn(Cc2ccccc2)c1Cl (stereo unspecified) | -0.2 | -16 | 7 | 5 | 7%
CC(=O)N1CCC(O)(c2cccc(C(F)(F)F)c2)CC1 | -0.4 | -27 | -1 | 5 | -9%
CCOC(=O)c1cnc2ccccc2c1Nc1cccc(C(=O)O)c1 | nt | nt | -2 | 20 | 2%
COc1ccc(-c2nn(-c3ccccc3)cc2C(=O)Nc2ccc(C(=O)O)cc2)cc1 | -0.4 | nt | 1 | nt | nt
CCCNc1nc2c(c(=O)n(C)c(=O)n2C)n1CCC(C)C | 1.3 | -7 | -10 | 1 | 10%
COc1ccccc1-c1c(C(F)(F)F)oc2cc(OCC(=O)Nc3cc(C)ccc3C)ccc2c1=O | -3.0 | -17 | 1 | 13 | 1%
COc1ccc(CC(=O)Nc2cccc(C)n2)cc1OC | 0.5 | -43 | 0 | 4 | 12%
COc1ccc(NC(=O)CC2SC3=NCCN3C2=O)cc1 (stereo unspecified) | -1.4 | nt | 2 | -3 | -4%
COC(=O)NNC(=O)c1ccc(Cl)cc1Cl | 0.3 | -16 | 6 | -1 | 0%
CCN1CCCC1CNCc1cccc(OC)c1OCc1ccccc1F (stereo unspecified) | -1.7 | -7 | -2 | 3 | -3%
Cc1ccccc1C(=O)Nc1ccc(CN2CCOCC2)cc1 | 2.3 | nt | -6 | nt | nt
CC1=C(C(=O)Nc2cc(C)ccn2)C(c2ccc(C)cc2)C2=C(CCCC2=O)N1 (stereo unspecified) | -30 | -20 | -3 | -1 | -6%
Cc1cc(NC(=O)CCC(=O)N(CC(=O)NC2CCCC2)c2ccc(F)cc2)no1 | 2.4 | nt | -7 | nt | nt
O=C(Nc1cccc2ccccc12)N1CCOCC1 | 0.3 | 16 | -2 | 7 | 4%

Continued; it opens with the four that closed the last part.
SMILES | RecA intein inh | YopH PTP inh | Mtb bLac sens | Arbovirus inh | Mtb growth | others
Cc1ccccc1C(=O)Nc1ccc(CN2CCOCC2)cc1 | 2.3 | nt | -6 | nt | nt
CC1=C(C(=O)Nc2cc(C)ccn2)C(c2ccc(C)cc2)C2=C(CCCC2=O)N1 (stereo unspecified) | -30 | -20 | -3 | -1 | -6%
Cc1cc(NC(=O)CCC(=O)N(CC(=O)NC2CCCC2)c2ccc(F)cc2)no1 | 2.4 | nt | -7 | nt | nt
O=C(Nc1cccc2ccccc12)N1CCOCC1 | 0.3 | 16 | -2 | 7 | 4%
CC(=O)Oc1ccccc1-c1nc(/C=C/c2ccccc2)no1 | 9.8 | nt | 5 | nt | nt
O=C(Nc1ccc(F)cc1F)C1(c2cccs2)CCOCC1 | -2.6 | nt | 2 | -2 | 4%
CC(=O)Nc1ccc(NC(=O)C(C)OC(=O)CC2CCCCC2)cc1 (stereo unspecified) | -1.6 | nt | 1 | nt | nt
O=C(Nc1cc(Cl)cc(Cl)c1)C1C2C=CC3(O2)C1C(=O)N(CCCN1CCOCC1)C3C(=O)NC1CCCCC1 (stereo unspecified) | -0.1 | nt | -10 | nt | nt
CCc1nnc(NC(=O)CS(=O)(=O)c2ccccc2)s1 | 0.7 | nt | -5 | nt | nt
Cc1cc(C)nc(NS(=O)(=O)c2ccc(NC(=O)c3ccccc3C)cc2)n1 | 0.9 | nt | 2 | nt | nt
COc1ccc(NS(=O)(=O)c2ccc3c(c2)[C@H]2C=CC[C@H]2[C@@H](c2ccc(C(=O)O)cc2)N3)cc1 | 19 | nt | -2 | nt | nt
Cc1cc(Nc2nnnn2-c2ccccc2)n(-c2ccc(Cl)cc2)n1 | -4.0 | -29 | -9 | 4 | -13%
CCC(=O)Nc1ccc(CCC(=O)N2CCCC2)cc1 | 1.2 | nt | -7 | nt | nt
CC(C)n1nnnc1-c1ccc(Cl)cc1 | 0.9 | nt | 2 | 3 | -2%
COc1ccc2c(c1[N+](=O)[O-])CCC/C2=N/OC(=O)c1ccccc1SC | 0.2 | -34 | 35 | 7 | -4%
Cc1ccccc1C(=O)NNC(=O)c1cc(N)cc([N+](=O)[O-])c1 | 3.6 | -25 | -6 | 4 | 2%
O=C(NC(=S)Nc1ccc(N2CCCCC2)cc1)c1ccc2c(c1)OCCO2 | -4.4 | 8 | 31 | 4 | 42%
Cn1c(=O)c2c(nc(N/N=C/c3c(O)n(-c4ccccc4)c(=S)[nH]c3=O)n2C)n(C)c1=O | -1.3 | -27 | 6 | -12 | -1%
O=C(NCc1ccccc1)c1cccc(COc2ccc3c(c2)CCC3)c1 | -0.1 | -11 | 10 | 18 | 12%
Cc1ccc(Cl)c(NC(=O)CN2CCN(C=O)CC2)c1 | -3.1 | nt | 3 | 5 | -3%
COc1c(O)cccc1/C=N/NC(=O)Cn1ccnc1C | -1.1 | nt | -1 | nt | -2%
CCN(CC(=O)Nc1c(F)cccc1F)C(=O)c1ccc(N2CCCC2=O)cc1 | -0.5 | nt | -6 | nt | nt
C=CCNC(=S)N/N=C/c1ccc(-c2cccc([N+](=O)[O-])c2)o1 | 1.0 | nt | -2 | -11 | 2%
S=C(NCCc1ccccc1)Nc1ccccc1 | -3.6 | nt | -9 | nt | 10%
O=S(=O)(CCN1CCCCC1)Oc1ccc(Cl)cc1Cl | 1.5 | nt | -4 | nt | 5%
CCOC(=O)c1c(NC(=O)CN(C)C)sc(C(=O)N(CC)CC)c1C | -0.3 | -11 | 3 | 9 | 9%
Cc1cccc(-c2nnn3c2nc(NCCc2ccc(S(N)(=O)=O)cc2)c2ccccc23)c1 | -32 | -4 | 3 | -18 | -3%
O=C(CCCn1c(=O)[nH]c2ccsc2c1=O)NCc1cccs1 | -2.6 | -40 | 1 | 2 | -12%
COc1ccc2[nH]c3c(c2c1)CCN1C(=O)N([C@@H](C)C(=O)NCCc2ccc(OC)c(OC)c2)C(=O)[C@]31C | -0.5 | nt | -4 | nt | nt

(list continues)
SMILES | RecA intein inh | YopH PTP inh | Mtb bLac sens | Arbovirus inh | Mtb growth | others
Cc1cc(C)n2nc(C(=O)N/N=C/c3ccco3)nc2n1 | -12 | nt | -8 | nt | -8%
COc1ccc(C2c3c(-c4ccccc4O)n[nH]c3C(=O)N2Cc2ccco2)cc1OC (stereo unspecified) | 7.7 | nt | 2 | nt | 2%
CCOC(=O)N1CCN(C(=O)c2ccc3c(c2)N(Cc2ccc(F)cc2)CCS3)CC1 | -1.2 | nt | 4 | nt | nt
CCc1cccc(Nc2cnn(C34C[C@@H]5C[C@@H](CC(CC(=O)O)(C5)C3)C4)c(=O)c2Cl)c1 | 3.1 | nt | -5 | 13 | -4%
CC(=O)N(CC(=O)O)c1ccccc1 | -1.5 | -20 | 4 | 8 | -5%
Cc1ccc(S(=O)(=O)N2CCN(C(=O)COC(=O)c3cc(C)oc3C)CC2)cc1 | -1.5 | -50 | -4 | 14 | nt
Cc1nc(N2CCN(C(=O)c3ccco3)CC2)c2c3c(sc2n1)CC(C)CC3 (stereo unspecified) | 19 | nt | 96 | 8 | -4%
COc1cccc(NC(=O)n2ncc3c(C)cccc32)c1 | 7.6 | nt | 12 | nt | nt
Cc1ccc(NC(=S)N/N=C2/CCCCc3ccccc32)cc1 | 11 | nt | -1 | nt | 0%
O=C1CC(c2ccco2)CC(O)=C1C=NCCO (stereo unspecified) | -2.3 | -35 | 6 | 12 | 7% | Arbovirus inh repeat=10
CC(=O)c1cccc(NC(=O)CO/N=C2/CCCc3nonc32)c1 | -6.7 | nt | 0 | 18 | -4%
N#Cc1c(Cl)cccc1Oc1ccc(S(=O)(=O)Nc2ccccc2)cc1 | 10 | nt | -4 | nt | -3%
COc1ccc(CNC(=O)c2ccccc2NC(=O)C2=CSCCO2)c(OC)c1 | 0.1 | nt | 6 | nt | nt
OCCCn1c(-c2ccccc2)nc(=S)c2c1CCCC2 | -0.8 | -38 | 0 | -3 | -3%
Cc1cc(C(=O)COC(=O)c2ccc[nH]c2=O)c(C)n1-c1ccccc1F | 1.4 | nt | 21 | nt | 1%
